High-throughput results deposited in PubChem BioAssay by several laboratories.
Mtb H37Rv: M. tuberculosis H37Rv growth inhibitors, H37Rv strain (AID 1626). hit rate 0.95% among 220,000. M. tuberculosis H37Rv growth inhibition; higher % means a stronger effect. inhibition, % at 10 µM; hits with a dose series show IC50 in µM;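 active = confirmed in a dose series; inconclusive = inhibition above 80% but not taken into the dose series; inactive = below 80% or under 30% at every dose of the series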;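 also: bacteria incubated seven days before Alamar blue readout; 0% = bacteria only wells and 100% = bacteria with antibiotic wells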
RecA intein inh: inhibitors of M. tuberculosis RecA intein splicing. cell-free RecA intein splicing, fluorescence. hit rate 0.75% among 290,000. P9WHJ3. inhibition, %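 (about 9 µM by stock and volumes)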; in the data active = inhibition above about 30%; inconclusive = no clear call, values can overlap the other calls;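 also: 0% = vehicle wells and 100% = reference inhibitor control wells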
Target sequence (P9WHJ3 whole entry, looked up): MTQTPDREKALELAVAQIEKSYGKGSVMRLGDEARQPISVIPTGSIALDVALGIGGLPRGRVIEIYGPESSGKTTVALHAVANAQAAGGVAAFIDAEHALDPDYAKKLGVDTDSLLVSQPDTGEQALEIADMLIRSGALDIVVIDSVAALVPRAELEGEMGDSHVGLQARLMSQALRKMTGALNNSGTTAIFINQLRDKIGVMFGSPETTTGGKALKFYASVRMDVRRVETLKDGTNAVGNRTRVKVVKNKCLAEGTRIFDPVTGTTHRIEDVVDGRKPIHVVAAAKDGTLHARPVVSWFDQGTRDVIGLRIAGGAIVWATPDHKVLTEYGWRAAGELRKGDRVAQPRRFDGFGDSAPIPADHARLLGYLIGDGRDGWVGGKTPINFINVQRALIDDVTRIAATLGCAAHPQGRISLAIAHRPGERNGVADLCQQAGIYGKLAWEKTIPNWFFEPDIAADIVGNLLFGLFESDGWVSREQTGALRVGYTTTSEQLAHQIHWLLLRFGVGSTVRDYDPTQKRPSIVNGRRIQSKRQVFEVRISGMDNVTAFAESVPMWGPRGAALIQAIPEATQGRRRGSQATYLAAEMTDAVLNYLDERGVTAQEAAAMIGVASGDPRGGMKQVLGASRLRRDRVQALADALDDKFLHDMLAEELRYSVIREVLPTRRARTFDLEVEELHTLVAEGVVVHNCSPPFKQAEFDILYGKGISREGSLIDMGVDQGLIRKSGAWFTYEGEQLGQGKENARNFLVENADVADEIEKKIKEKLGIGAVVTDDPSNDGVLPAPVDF
YopH PTP inh: blocks Yersinia enterocolitica YopH tyrosine phosphatase. hit rate 0.16% among 140,000. fluorescence Ex485/Em525. inhibition, %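 (about 10 µM by stock and volumes)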;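 active = inhibition of 50% or more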;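 also: controls were vehicle for no effect and minimum signal wells for full effect; inactives centre near -20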
Arbovirus inh: blocks arbovirus infection; arbovirus infection cell-based antiviral screen; inhibition, % at 10 µM; hit rate 0.37% among 200,000; AID 1251;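 active = inhibition from about 30%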;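 also: bluetongue infection of BSR cells; cell survival read as ATP light after 72 h; 0% = infected wells without compound and 100% = uninfected wells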
Mtb betalactam: beta-lactam sensitization of Mtb H37Rv | M. tuberculosis H37Rv growth with meropenem, percent inhibition; hits of this screen are not shown here | inhibition, % at 25 µM | hit rate 0.27% among 330,000 | AID 434955;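 active = about 74% or more and at least 40 points above the plate without the antibiotic, then above 30% in a dose series; inconclusive = first-round hits that could not be retested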;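 also: growth measured after seven days incubation then overnight dye step; 0% = bacteria only wells and 100% = bacteria with antibiotic; twin plates without the antibiotic show which effects depend on it; some results filed as inactive read as strong as hits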
The depositor's hits bear a star; ? = inconclusive; . = no result given. Not all compounds are listed; count on the stated rates, not on these rows.

Results follow in this order: Mtb betalactam	YopH PTP inh	RecA intein inh	Arbovirus inh	Mtb H37Rv
Cc1cc(=O)n2[nH]c(N)c(N=Nc3ccccc3)c2n1
  3	-41	1.8	-10	10%
Cc1cc(C)c2sc(C)[n+](CCCS(=O)(=O)[O-])c2c1
  2	.	-3.4	-10	-3%
O=C1NC(=S)CN1c1ccccc1
  51	.	-4.3	.	-4%
O=C(COC(=O)COc1ccccc1[N+](=O)[O-])Nc1cccc(Br)c1
  3	-12	1.1	5	5%
CN1CCN(C(=O)CCC(=O)O)CC1
  -10	.	0.9	.	-11%
Cc1nc(C)c(C(=O)C2=C(O)C(=O)N(CCCn3ccnc3)C2c2ccccc2)s1 (stereo not given)
  .	3	2.2	4	-5%
CCC(C)N1CCN(S(=O)(=O)c2ccc(NC(C)=O)cc2)CC1 (stereo not given)
  -1	.	4.2	-4	-3%
O=c1[nH]cc(S(=O)(=O)N2CCN(c3cccc(Cl)c3)CC2)c(=O)[nH]1
  -13	.	-2.3	.	.
COc1ccccc1OCCNC(=O)/C=C/c1ccc([N+](=O)[O-])cc1
  4	2	-1.9	1	11%
CN(C)S(=O)(=O)n1cc(/C=C(\NC(=O)c2ccccc2Cl)C(=O)N2CCCC2)c2ccccc21
  2	.	0.8	.	.
CCOC(=O)C1=C(N)N2C(=O)C(C)SC2=C(C(=O)OCC)C1c1cc(OC)c(OC)c(OC)c1 (stereo not given)
  0	.	-1.4	.	4%
CCN(CC(O)Cn1c2ccccc2c2ccccc21)S(=O)(=O)c1ccc(C)cc1 (stereo not given)
  1	-12	.	-34	10%
Cc1ccc2oc(C(=O)Nc3nnc(CC(C)C)s3)c(C)c2c1
  -2	.	-3.0	.	.
COC(=O)C(=O)/C=C(\O)c1ccc(C)cc1
  -3	9	0.9	12	.
Cc1ccc(S(=O)(=O)CC(=O)Nc2cccc(C)n2)cc1
  1	.	1.0	.	.
Cc1ccc(CN2CC(C(=O)Nc3cccc(S(=O)(=O)N4CCCCC4)c3)CC2=O)cc1 (stereo not given)
  2	-3	4.1	8	-4%
Cc1c(C(=O)NCCNc2ncc(C(F)(F)F)cc2Cl)cccc1[N+](=O)[O-]
  -3	.	-1.7	.	.
O=C(NCC(c1ccc(F)cc1)N1CCOCC1)c1cccnc1Sc1ccccc1Cl (stereo not given)
  -8	.	2.1	.	.
COc1ccc(S(=O)(=O)n2cnc3ccccc32)c(C)c1
  -13	.	-0.3	.	.
CCCn1c(SCC(=O)Nc2cccc(C)n2)nnc1-c1ccco1
  -10	-7	0.2	3	.

Four of the compounds above, with each value named:
> O=C(COC(=O)COc1ccccc1[N+](=O)[O-])Nc1cccc(Br)c1
  Mtb betalactam = 3; YopH PTP inh = -12; RecA intein inh = 1.1; Arbovirus inh = 5; Mtb H37Rv = 5%
> CCOC(=O)C1=C(N)N2C(=O)C(C)SC2=C(C(=O)OCC)C1c1cc(OC)c(OC)c(OC)c1 (stereo not given)
  Mtb betalactam = 0; YopH PTP inh = .; RecA intein inh = -1.4; Arbovirus inh = .; Mtb H37Rv = 4%
> Cc1ccc2oc(C(=O)Nc3nnc(CC(C)C)s3)c(C)c2c1
  Mtb betalactam = -2; YopH PTP inh = .; RecA intein inh = -3.0; Arbovirus inh = .; Mtb H37Rv = .
> CCN(CC(O)Cn1c2ccccc2c2ccccc21)S(=O)(=O)c1ccc(C)cc1 (stereo not given)
  Mtb betalactam = 1; YopH PTP inh = -12; RecA intein inh = .; Arbovirus inh = -34; Mtb H37Rv = 10%

Next compounds
Results follow in this order: Mtb betalactam	YopH PTP inh	RecA intein inh	Arbovirus inh	Mtb H37Rv
Cc1ccc(NC(=O)CSc2nc3c(c(=O)[nH]2)CCC3)cc1C
  ?	-5	-1.8	17	56%
CC(C)(C)NC(=O)COC(=O)c1c2c(nc3ccccc13)CCC2
  6	.	2.8	.	.
COc1ccc2nc(NC3=NCCC3)sc2c1
  5	-7	-0.1	-4	12%
CN(C(=O)COC(=O)c1cncc(Br)c1)C1CCS(=O)(=O)C1 (stereo not given)
  -8	.	-4.8	9	-5%
Cc1c(Cl)cccc1NC(CC(=O)c1ccccc1)C(=O)OCC(=O)c1cccs1 (stereo not given)
  0	-14	1.3	4	2%
COc1cccc(OC)c1C(=O)Nn1c(-c2cccs2)nc2ccccc2c1=O
  7	6	1.7	8	2%
Cc1c(C(=O)Nc2ccc(S(=O)(=O)Nc3ncccn3)cc2)oc2ccc(F)cc12
  -3	.	-1.0	.	.
CCn1c2ccccc2c2cc(NC(=O)C(C)Oc3ccc(OC)cc3)ccc21 (stereo not given)
  39	-17	0.3	-7	5%
CC12CN3CC(C)(CN(C1)C3c1ccc3c(c1)OCO3)C2O (stereo not given)
  0	.	-0.9	.	0%
COc1ccc(C(c2nnnn2C2CCCC2)N2CCN(C3CCCC3)CC2)cc1OC (stereo not given)
  -4	4	2.8	2	-16%
CC12CCC(C(=O)N(CC3CO3)C1=O)C2(C)C (stereo not given)
  2	.	1.5	9	1%
CC(=O)Oc1ccc2oc(C)c(C(=O)N3CCOCC3)c2c1
  -3	-6	2.4	-5	-13%
Cn1cnc(S(=O)(=O)NCc2ccc(Br)cc2)c1
  2	.	0.1	.	.
O=C(Nc1ccccc1OC(F)(F)F)c1ccc([N+](=O)[O-])cc1
  9	.	0.3	2	.
CCC(C(=O)OCC(=O)c1c(N)n(CC(C)C)c(=O)n(C)c1=O)c1ccccc1 (stereo not given)
  -4	.	11	.	.
Nc1nonc1-c1noc(-c2ccccc2Br)n1
  -3	-22	-0.6	8	-6%
COc1ccc(Cl)cc1S(=O)(=O)N1CCC(C(=O)NCc2ccco2)CC1
  -3	.	-0.2	.	.
COc1ccc2cc(C(=O)C3CCCN(C(=O)c4sc(C)nc4C)C3)ccc2c1 (stereo not given)
  -1	.	1.6	.	.
Cc1ccc(NC(=O)NCc2ccccn2)c(C)c1
  -2	.	-1.5	.	.
Cc1cc(C)cc(C(=O)NCCCc2ccccc2)c1
  -6	.	12	2	-1%

Of the compounds above, 4 contain bromine:
Results follow in this order: Mtb betalactam	YopH PTP inh	RecA intein inh	Arbovirus inh	Mtb H37Rv
O=C(COC(=O)COc1ccccc1[N+](=O)[O-])Nc1cccc(Br)c1
  3	-12	1.1	5	5%
CN(C(=O)COC(=O)c1cncc(Br)c1)C1CCS(=O)(=O)C1 (stereo not given)
  -8	.	-4.8	9	-5%
Cn1cnc(S(=O)(=O)NCc2ccc(Br)cc2)c1
  2	.	0.1	.	.
Nc1nonc1-c1noc(-c2ccccc2Br)n1
  -3	-22	-0.6	8	-6%

(continued)
Results follow in this order: Mtb betalactam	YopH PTP inh	RecA intein inh	Arbovirus inh	Mtb H37Rv
O=C(COc1ccc(/C=N/NC(=O)c2ccccc2Br)cc1)Nc1ccccc1
  11	.	0.5	.	.
COc1cc(C(=O)N/N=C(\C)c2ccccn2)cc(OC)c1OC
  74	.	-6.2	.	.
COc1ccc2c(c1)O/C(=C\c1ccco1)C2=O
  -1	.	-4.9	.	-1%
CC(C)CCN1C(=O)c2ccc(C(=O)Nc3ccccn3)cc2C1=O
  74	.	1.9	.	.
COC(=O)c1cnn(-c2ccc(F)cc2F)c1/C=N/NC(=S)NC(C)(C)C
  -2	.	.	.	-2%
N/C(Cc1ccc(Cl)cc1)=N\OC(=O)c1ccccc1
  1	-12	1.4	-2	1%
CCCN(Cc1cc2ccc(C)cc2[nH]c1=O)C(=O)c1ccccn1
  18	-21	-16	1	14%
COc1ccccc1NC(=O)CN(C)S(=O)(=O)c1cccc2cccnc12
  -1	.	0.9	.	.
Cc1cccc2sc(NC(=O)C3CCN(S(=O)(=O)c4cc([N+](=O)[O-])ccc4Cl)CC3)nc12
  100	-14	7.6	5	?
Cc1ccc(C(=O)NCc2ccncc2)cc1S(=O)(=O)N1CCOCC1
  -2	.	0.9	.	.
CC(C)C(=O)Nc1ccc2nn(-c3ccccc3)nc2c1
  1	.	3.2	-3	6%
CCc1ccc(NC(=O)Cc2ccc(-n3cccc3)cc2)cc1
  1	1	-2.9	7	-3%
COc1cccc(CCc2nnc(CCC(=O)NCCC3CCCCO3)o2)c1 (stereo not given)
  4	.	0.0	.	.
Cc1ccc(N/C(N)=N/c2nc(CSc3ccccn3)cc(=O)[nH]2)c(C)c1
  -8	.	-0.3	-6	-4%
Cc1ccc(S(=O)(=O)N(C)c2c(C)ccc(S(=O)(=O)N3CCN(C=O)CC3)c2C)cc1
  0	-19	-1.1	2	-3%
O=S(=O)(c1ccc(Cl)cc1)n1ccc(-c2cccc(OCc3c(F)cccc3Cl)c2)n1
  18	-51	-6.2	1	-6%
Cc1cc(C)c(NC(=O)c2ccccc2CCc2ccccc2)c(C)c1
  5	-17	0.4	-1	-2%
CC(C)CC(NC(=O)c1ccccc1)C(=O)OCC(=O)Nc1ccc(Br)cn1 (stereo not given)
  9	-1	-0.5	5	-18%
Cc1cc(CSc2ccccc2)ccc1NC(=O)c1ccc(C)c([N+](=O)[O-])c1
  -4	-31	1.1	-12	8%
COc1cc(NC(=O)CSc2ncnc3scc(-c4ccccc4)c23)c(C(=O)O)cc1OC
  -6	.	-3.2	17	-3%

Structures above that have two or more sulfur atoms:
Results follow in this order: Mtb betalactam	YopH PTP inh	RecA intein inh	Arbovirus inh	Mtb H37Rv
Cc1cc(C)c2sc(C)[n+](CCCS(=O)(=O)[O-])c2c1
  2	.	-3.4	-10	-3%
Cc1cccc2sc(NC(=O)C3CCN(S(=O)(=O)c4cc([N+](=O)[O-])ccc4Cl)CC3)nc12
  100	-14	7.6	5	?
Cc1ccc(S(=O)(=O)N(C)c2c(C)ccc(S(=O)(=O)N3CCN(C=O)CC3)c2C)cc1
  0	-19	-1.1	2	-3%
COc1cc(NC(=O)CSc2ncnc3scc(-c4ccccc4)c23)c(C(=O)O)cc1OC
  -6	.	-3.2	17	-3%

(next part)
Results follow in this order: Mtb betalactam	YopH PTP inh	RecA intein inh	Arbovirus inh	Mtb H37Rv
O=C(NCC(c1ccco1)N1CCc2ccccc21)c1c(F)cccc1F (stereo not given)
  -2	.	-1.0	.	.
COC(=O)c1cccc(NC(=O)c2cccc([N+](=O)[O-])c2)c1
  1	.	1.0	.	.
N/C(=N\OC(=O)CCC1CCCC1)c1ccccn1
  2	-14	6.8	-7	1%
Cc1ccc(C(=O)n2nc(-c3ccco3)nc2N)cc1
  -11	-27	25	-1	-4%
Cc1oc(-c2ccccc2)cc1C(N)=O
  -3	2	0.1	-2	-5%
Cn1c(CCNS(=O)(=O)c2ccccc2)nnc1SCc1cccnc1
  -3	.	0.8	.	.
O=C(c1cc2ccccc2oc1=O)N(c1ccc(Cl)cc1)C1C=CS(=O)(=O)C1 (stereo not given)
  -6	-8	-1.9	-1	-5%
COc1ccc(CCNC(=O)C(=O)c2cn(CC(=O)N3CCOCC3)c3ccccc23)cc1OC
  1	.	2.4	.	.
CCOC(=O)CSc1nc(N)c(C(=O)Nc2ccc(N(C)C)cc2)s1
  100	-39	-4.1	-2	?
Cc1n[nH]c(C)c1S(=O)(=O)NCCc1ccc(Cl)cc1
  -5	1	2.6	0	2%
O=C(Nc1nccs1)c1ccc(-c2ccc(F)cc2)o1
  93	.	0.5	-7	5%
O=C1CCCc2cc(S(=O)(=O)N3CCC(C(=O)NCc4ccccc4)CC3)ccc2N1
  1	.	2.6	.	.
Cc1ccc(-n2ncc(C#N)c2N)cc1
  -5	.	0.2	.	1%
O=C(Nc1nccs1)c1cccc(N2C(=O)C3C4C=CC(C4)C3C2=O)c1 (stereo not given)
  -4	-35	1.2	4	2%
COc1ccc(N(CC(=O)NCc2cccc(OC)c2)S(=O)(=O)c2c(C)noc2C)cc1
  10	1	-0.3	0	-8%
Cc1cc(C)c(C(=O)COC(=O)[C@H](C)Nc2ccc(C(F)(F)F)cc2[N+](=O)[O-])c(C)c1
  10	-24	-0.2	-2	0%
O=C(N/N=C/c1ccc(O)c([N+](=O)[O-])c1)c1ccncc1
  97	.	-5.5	.	?
CCCCc1[nH]c(=O)c(C#N)c2c1CSC(C)(C)C2
  3	-24	-3.5	23	-11%
Cc1noc(C)c1C(=O)NNc1ccc(C(C)C)cc1
  48	.	-0.4	.	63%
